Sfp PPTase inh: inhibitors of Bacillus subtilis Sfp phosphopantetheinyl transferase. Potency, µM, for the others: max response, negative = inhibition, most hits filed as inhibitors. Biochemical Sfp PPTase activity, qHTS. 3.5% of 310,000 active. Q9F4F7. AID 1490; active = well fitted inhibition curve with a large enough effect; inconclusive = small, poorly fitted or top-dose-only effect, or another doubt; inactive = no such curve, though single readings can be large or run the other way;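 also: the enzyme is Sfp with the accession as filed and its product quenches rhodamine fluorescence; potency is read from the fitted curve at half-maximal effect; 0% = enzyme reaction without inhibitor and -100% = no enzyme wells; top concentration of the series not given in the record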
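After 15 min at room temperature with compound, 15 nM Sfp received 5 uM rhodamine-CoA plus 12.5 uM BHQ-2-ybbR (50 mM Hepes pH 7.6, 10 mM MgCl2). Rate came from the fluorescence difference over 30 min, ex 525/em 598 nm.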
Menin MLL FP FL: displaces fluorescein MLL peptide from human menin; 290,000 tested, under 10 active; Fluorescence polarization, fluorescein-MLL peptide displacement from menin; FP activity change, % at 61.4 µM; AID 1766; inconclusive = falling polarisation curve, or a change in total fluorescence; inactive = total fluorescence flat and polarisation flat or rising; no compound was filed as active; the % refers to the polarisation; negative = inhibition;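 also: % of control where 0% means no effect; inhibitors lower the polarisation; unlabelled MLL peptide was the positive control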
* marks the source's active call; other numbers are inactive results; ? = inconclusive; & = joins results of further samples; ! = not confirmed by another sample; [ ] = another dose, or the depositor's remark. Not all compounds are listed; rates above refer to the full screens.

Fields: Sfp PPTase inh | Menin MLL FP FL
> COC(=O)c1ccc(C(NC(=O)OCc2ccccc2)/C(F)=C/[C@@H](C)C(=O)NCc2cc(C)on2)cc1 (stereo partly specified)
→ 9% | -2.3
> Cc1ccc(S(=O)(=O)COCCN2CCN(S(=O)(=O)c3ccc(C)cc3)CCC2=O)cc1
→ -20% | 0.4
> COc1cc(/C=C/C(=O)N2CCN(CC(=O)N3CCCC3)CC2)cc(OC)c1OC
→ 17% | -0.7
> CC[C@H](C)[C@H](NC(=O)[C@H](C)NC(=O)CNC(=O)[C@H](CCCCN)NC(=O)[C@H](CC(N)=O)NC(=O)[C@H](CO)NC(=O)CN)C(=O)N[C@H](C(=O)NCC(=O)N[C@@H](CC(C)C)C(=O)N[C@@H](CCSC)C(=O)O)[C@@H](C)CC
→ 2% | 0.7
> Nc1ncnc2c1ncn2[C@@H]1O[C@@H](CO)[C@H](O)[C@H]1O
→ 15% | 1.6[24.8 µM]
> Cc1cc(F)ccc1OC1C=CC(c2ccc3c(c2)OCO3)OC1CO (stereo unspecified)
→ 9% | -0.1[11.7 µM]
> C=CCC1CCC(=O)N2CCCC12 (stereo unspecified)
→ 9% | -1.8[138 µM]
> Clc1cc(Cl)c(OCC#CI)cc1Cl
→ 79µM* | -0.5
> O=C(Nc1ccc(O)c2c(=O)cc(-c3ccccc3Cl)oc12)c1ccc(Br)cc1
→ -1% | -0.8
> COc1ccc(C2=CC3=C(Br)C(=O)C(C)(OC(=O)CCc4ccccc4)C(=O)C3=CO2)cc1 (stereo unspecified)
→ -15% | -14

Compound profiles, from the list above. Order of screens: Sfp PPTase inh, Menin MLL FP FL
CC[C@H](C)[C@H](NC(=O)[C@H](C)NC(=O)CNC(=O)[C@H](CCCCN)NC(=O)[C@H](CC(N)=O)NC(=O)[C@H](CO)NC(=O)CN)C(=O)N[C@H](C(=O)NCC(=O)N[C@@H](CC(C)C)C(=O)N[C@@H](CCSC)C(=O)O)[C@@H](C)CC is listed as 2%, 0.7
Nc1ncnc2c1ncn2[C@@H]1O[C@@H](CO)[C@H](O)[C@H]1O is listed as 15%, 1.6[24.8 µM]

(more compounds)
Fields: Sfp PPTase inh | Menin MLL FP FL
> N[C@]1(C(=O)O)CCc2cc(C(=O)O)ccc21
→ -24% | ?
> CC(C)[C@H](CO)Nc1nc(Nc2cc(N)cc(Cl)c2)c2ncn(C(C)C)c2n1
→ -8% | ?
> CC(=O)N[C@@H](CSC/C=C(\C)CC/C=C(\C)CC/C=C(\C)CCC=C(C)C)C(=O)O
→ 15%&-9%&1% | -1.2
> CCc1c2c(nc3ccc(OC)cc13)OC(C)C2 (stereo unspecified)
→ 4% | -1.9
> O=C(O)[C@@H]1C[C@@H](C(=O)O)N1
→ ? | -2.2&22
> CC[C@H]1[C@@H]2C=C[C@@H]3[C@H]4C/C=C\C(=O)NCCC[C@@H]5NC(=O)C(=C5O)C(=O)CC[C@@H]4C[C@@H]3[C@H]2C[C@H]1C
→ -5%&-15% | 0.2
> CCCCCCCCCCCCCC(=O)OC(C)C
→ 0% | -1.2
> CCN(C/C=C/C#CC(C)(C)C)Cc1cccc(OCc2cc(-c3ccsc3)cs2)c1
→ 13% | -1.5
> COc1cccc(OC)c1-c1cc(C(=O)NC2(C(=O)O)C3CC4CC(C3)CC2C4)nn1-c1ccc(C(=O)N(C)CCCN(C)C)cc1C(C)C (stereo unspecified)
→ -11% | -0.6
> OCc1ccc(-c2ccc(-c3ccc(CO)s3)o2)s1
→ -26% | ?

Brought forward from above: 7 entries, followed by the next part.
Fields: Sfp PPTase inh | Menin MLL FP FL
> CCc1c2c(nc3ccc(OC)cc13)OC(C)C2 (stereo unspecified)
→ 4% | -1.9
> O=C(O)[C@@H]1C[C@@H](C(=O)O)N1
→ ? | -2.2&22
> CC[C@H]1[C@@H]2C=C[C@@H]3[C@H]4C/C=C\C(=O)NCCC[C@@H]5NC(=O)C(=C5O)C(=O)CC[C@@H]4C[C@@H]3[C@H]2C[C@H]1C
→ -5%&-15% | 0.2
> CCCCCCCCCCCCCC(=O)OC(C)C
→ 0% | -1.2
> CCN(C/C=C/C#CC(C)(C)C)Cc1cccc(OCc2cc(-c3ccsc3)cs2)c1
→ 13% | -1.5
> COc1cccc(OC)c1-c1cc(C(=O)NC2(C(=O)O)C3CC4CC(C3)CC2C4)nn1-c1ccc(C(=O)N(C)CCCN(C)C)cc1C(C)C (stereo unspecified)
→ -11% | -0.6
> OCc1ccc(-c2ccc(-c3ccc(CO)s3)o2)s1
→ -26% | ?
> COC(=O)[C@@]1(Cc2ccccc2)[C@@H]2[C@@H](CC(=O)[C@H]2CC(=O)C(=O)N(C)C)CN1C(=O)c1ccccc1
→ 11% | -0.7
> NC(=O)Oc1ccc(Cc2ccccc2)cc1
→ 13% | 2.2
> COC(=O)[C@@]1(C)C=C[C@@H](Cc2ccccc2)N1C(=O)c1ccccc1
→ 22% | -5.1
> CCC1=C(OC(=O)N(CC)CC)N2C(=O)OC(=NCC3CC3)[C@]2(C)[C@H]2C1=CC[C@H]1C(=O)N(c3ccccc3)C(=O)[C@H]12
→ 13% | -1.0
> O=C(CCCC[C@@H]1SC[C@H]2NC(=O)N[C@H]12)Nc1ccc(C(=O)O)cc1
→ -17% | 4.8
> Cc1ccc(S(=O)(=O)N[C@H]2COC(=O)C/C=C\[C@@H](C)[C@H](NS(=O)(=O)c3ccc(C)cc3)COC(=O)C/C=C\[C@H]2C)cc1
→ 6% | 2.2[11.7 µM]
> COc1ccc2c(c1)C(=O)[C@@H](OC(=O)NC1CCCC1)[C@H](c1ccc(OC)c(Br)c1)O2
→ -5% | -1.5
> CCCC[C@@H]1C[C@H]1C(NC(=O)c1ccccc1)c1ccc(-c2ccccc2)cc1 (stereo partly specified)
→ 20% | 0.3
> C[C@H]1Cc2c(-c3ccccc3)nc3c(c2CO1)CN(C(=O)Cc1cccs1)CC3
→ 0% | -1.5[11.7 µM]
> COc1ccc2c(c1)OCC(Cc1ccc(OC)c(O)c1)C2=O (stereo unspecified)
→ 2% | -1.0
> COc1ccc2[nH]c(I)c(CCNC(C)=O)c2c1
→ 11%&-10% | 22
> COc1ccc2cc(C(C)CO)ccc2c1 (stereo unspecified)
→ 17% | -0.6
> CC12C=C(/C=C/C=C/c3ccccc3)C(C)(C1)C(/C=C/c1ccccc1)CC2=O (stereo unspecified)
→ -8% | 2.2[11.7 µM]
> Cc1ccc(/C=C/C2=CC3(C)CC2(C)C(c2ccc(C)cc2)CC3=O)cc1 (stereo unspecified)
→ 8% | -1.8[11.7 µM]
> N=C(N)S/C=C\C(=O)O
→ 7.9µM* | 17
> Cn1cc(C[C@H](C(=O)O)N2C(=O)c3ccc(C(=O)O)cc3C2=O)c2ccccc21
→ ? | -11
> COC(=O)N1C2(C=CC1(C)C(=O)NCc1ccc(N(C)C)cc1)CCCCC2 (stereo unspecified)
→ 5% | 0.3
> CCC/C=C(\CCC)C(NC(=O)c1ccccc1)c1ccc(C(=O)OC)cc1 (stereo unspecified)
→ 22% | 0.3
> COCOc1c2c(c(OCOC)c3c(OCOC)cccc13)/C(=N/N[S+](=O)([O-])c1ccc(C)cc1)C1=C2CCCC1
→ 4% | 3.8
> COc1ccc(C[C@@H](NS(=O)(=O)c2ccc(C(=O)O)cc2)C(=O)O)cc1
→ 10% | 1.5
> NC(=O)c1ccc2nc(-c3ccc(Oc4ccc(Cl)cc4)cc3)[nH]c2c1
→ -16% | 1.8
> N[C@H](C(=O)O)c1cccc(O)c1
→ 45µM*! | -17&-5.7
> CSCC[C@H](NC(=O)CNC(=O)CNC(=O)[C@H](CO)NC(=O)[C@H](CCCNC(=N)N)NC(=O)[C@H](CO)NC(=O)[C@H](CC(C)C)NC(=O)[C@H](CC(C)C)NC(=O)CNC(=O)[C@H](C)NC(=O)[C@H](CC(C)C)NC(=O)[C@H](CCCNC(=N)N)NC(=O)[C@H](Cc1cnc[nH]1)NC(=O)[C@@H](NC(=O)[C@@H](N)C(C)C)[C@@H](C)O)C(=O)N[C@H](C(=O)N[C@@H](CCCCN)C(=O)N[C@@H](CO)C(=O)N[C@@H](CC(N)=O)C(=O)N[C@@H](Cc1ccccc1)C(=O)N[C@H](C(=O)N1CCC[C@H]1C(=O)N[C@H](C(=O)N[C@@H](CC(N)=O)C(=O)N[C@H](C(=O)NCC(=O)N[C@@H](CO)C(=O)N[C@@H](CCCCN)C(=O)N[C@@H](C)C(=O)N[C@@H](Cc1ccccc1)C(N)=O)C(C)C)[C@@H](C)O)C(C)C)C(C)C
→ -4% | 1.6
> N[C@H](C(=O)O)[C@H](OCc1ccccc1)C(=O)O
→ ? | ?
> C1CCN2C[C@@H]3C[C@@H](CN4CCCC[C@H]34)[C@H]2C1
→ 29% | 5.1[24.8 µM]
> O=C1C[C@@H](c2ccc(O)cc2)Oc2cc(O[C@@H]3O[C@H](CO)[C@@H](O)[C@H](O)[C@H]3O)cc(O)c21
→ -7% | -1.5
> COC(=O)C1(C)C=CCN1C(=O)c1ccccc1 (stereo unspecified)
→ 11% | -3.0
> C=CC(C1=CC(=O)C=CC1=O)c1ccccc1 (stereo unspecified)
→ -34% | -1.2
> O=C(Nc1ncnc2c1ncn2[C@@H]1O[C@@H]2COP(=O)(O)O[C@H]2[C@H]1O)c1ccccc1
→ 2% | -1.8
> O=C(O)CCC[C@H](O)\C=C/C=C/C=C/[C@H](O)C/C=C\CCCCCO
→ 18% | -2.8
> CC[C@H](C)[C@H](NC(=O)[C@H](Cc1ccc(O)cc1)NC(=O)[C@@H](NC(=O)[C@H](CCCNC(=N)N)NC(=O)[C@@H](N)CC(=O)O)C(C)C)C(=O)N[C@@H](Cc1cnc[nH]1)C(=O)N1CCC[C@H]1C(=O)N[C@@H](Cc1ccccc1)C(=O)N[C@@H](Cc1cnc[nH]1)C(=O)N[C@@H](CC(C)C)C(=O)N[C@@H](CC(C)C)C(=O)N[C@H](C(=O)N[C@@H](Cc1ccc(O)cc1)C(=O)N[C@@H](CO)C(=O)O)C(C)C
→ -10% | -0.8
> C[C@@]1(C(NS(=O)(=O)c2cccc3cccnc23)c2ccc(-c3ccccc3)cc2)C[C@H]1C1CCCCC1 (stereo partly specified)
→ 24% | 1.0
> CO[C@@H]1COC(=O)C/C=C\[C@H](C)[C@@H](NS(=O)(=O)c2ccc(C)cc2)COC(=O)C/C=C\[C@@H]1C
→ 3%&-5% | -1.0&-1.4[11.7 µM]
> COc1ccc2oc(-c3ccc(O)cc3)cc(=O)c2c1
→ -7% | ?
> CC(=O)Oc1c2c(c3c(c1CC=C(C)C)O[C@@]14C(=CC5CC1C(C)(C)OC4(C/C=C(\C)C(=O)O)C5=O)C3=O)OC(C)(CCC=C(C)C)C=C2 (stereo partly specified)
→ -63% | 1.2
> N[C@H](Cc1cnc[nH]1)C(=O)O
→ -5%&-20% | ?
> c1ccc(CN2CCN(c3ncccn3)CC2)nc1
→ 56µM* | -0.4
> CN1Cc2c(C(=O)OC(C)(C)C)ncn2-c2ccsc2C1=O
→ 6% | 0.3
> CC(C)CCCC(C)CCCC(C)CCCC(C)C(=O)O (stereo unspecified)
→ -15% | -4.3
> COc1cccc([C@@H]2Oc3ccc(Br)cc3C[C@H]2OC(=O)Nc2cc(OC)c(OC)c(OC)c2)c1
→ 3% | -1.8
> CCCn1c(C)nc2c(NC3CCN(Cc4ccccc4)C3)nc(C)nc21 (stereo unspecified)
→ 19% | 0.7
> CC(=O)OCC1=C(C(=O)O)N2C(=O)C(NC(=O)CSc3ccncc3)[C@@H]2SC1 (stereo partly specified)
→ -13% | 2.8
> O=c1cc(-c2ccccc2)oc2cc(O)c(O)cc12
→ -3% | 6.3
> Cc1ccc(S(=O)(=O)NC(=O)NN2C[C@H]3CCC[C@@H]3C2)cc1
→ -22% | 1.7[24.8 µM]

Screening results from PubChem.
